CSC inhib: cancer stem cell inhibition | cancer stem cell-like cells viability, luminescence | inhibition, % at 7.5 µM | 300,000 tested, 1.1% active;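 active = mean at 75% or more and at least half the replicates too; inconclusive = mean and replicates disagree; tested in HMLE shEcad cells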;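 also: 0% = median of negative and 100% = median of positive control wells; the first replicate is given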
eIF4H inh: inhibitors of RNA binding by human eIF4H; Q15056; eIF4H fluorescence polarization binding assay; inhibition, % at 35 µM; 290,000 tested, 0.94% active; AID 2012;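 active = 50% or more with normal probe brightness, or confirmed in later tests; inconclusive = above 50% with abnormal brightness, or retests that disagree; inactive = below 50% or failed in later tests; about a fifth of its hits are not listed in these tables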;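 also: calls also rest on retests at 20 µM and on dose response follow-up; 0% = protein and probe with vehicle and 100% = probe without protein; strong numbers were not always called active; many hits fall short of the cut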
PABP FP inh: PABP-poly(A) binding inhibition | P11940 | PABP-poly(A) RNA binding, fluorescence polarization | inhibition, % at 35 µM | 290,000 tested, 1% active | AID 2014;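 active = 50% or more with normal probe brightness, or confirmed in later tests; inconclusive = above 50% with abnormal brightness, or retests that disagree; inactive = below 50% or failed in later tests; about a fifth of its hits are not listed in these tables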;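 also: calls also rest on retests at 20 µM and on dose response follow-up; controls were probe without protein and protein plus probe with vehicle; some compounds called inactive have numbers as strong as hits; many hits fall short of the cut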
Target sequence (P11940 whole entry, looked up): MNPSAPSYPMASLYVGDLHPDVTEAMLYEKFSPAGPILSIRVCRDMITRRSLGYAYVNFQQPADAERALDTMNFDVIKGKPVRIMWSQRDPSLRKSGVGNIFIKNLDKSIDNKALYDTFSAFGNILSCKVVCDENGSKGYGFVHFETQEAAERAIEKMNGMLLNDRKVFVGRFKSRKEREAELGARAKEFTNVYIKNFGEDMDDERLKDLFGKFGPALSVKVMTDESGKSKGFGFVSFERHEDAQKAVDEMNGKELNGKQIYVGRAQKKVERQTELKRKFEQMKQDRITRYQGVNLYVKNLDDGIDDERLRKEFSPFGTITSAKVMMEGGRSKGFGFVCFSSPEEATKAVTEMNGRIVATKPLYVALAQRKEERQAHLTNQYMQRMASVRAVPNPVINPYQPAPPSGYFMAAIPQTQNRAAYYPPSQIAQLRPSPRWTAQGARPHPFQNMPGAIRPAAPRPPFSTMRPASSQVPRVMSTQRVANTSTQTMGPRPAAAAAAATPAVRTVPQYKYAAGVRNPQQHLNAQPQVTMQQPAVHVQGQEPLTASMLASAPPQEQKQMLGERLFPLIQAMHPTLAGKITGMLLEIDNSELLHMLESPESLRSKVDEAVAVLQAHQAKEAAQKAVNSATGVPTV
Rce1 inh: yeast Ras-converting enzyme inhibition; Q03530; yeast membranes, quenched prenylated peptide cleavage fluorescence; calls only; 290,000 tested, 0.27% active; AID 2563;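 active = fall in fluorescence gain of 50% or more versus controls, with final raw signal at or below 3038400; inconclusive = same 50% fall but final raw signal above 3038400; inactive = fall in fluorescence gain under 50%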;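 also: plate controls were neutral control wells for no effect and wells lacking membranes for full effect; tested at 10 µM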
UUG fidelity: yeast start codon fidelity modulation. S. cerevisiae UUG-firefly luciferase reporter, luminescence/redox ratio. activity score, % at 18.7 µM. 350,000 tested, 0.13% active;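 active = replicate mean at a twofold rise or more, about +100% in these data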;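 also: firefly luciferase made from a UUG start codon reports start codon fidelity; reporter light over untreated wells divided by growth signal over untreated wells; some hits fall short of that in this replicate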
MT1-MMP act inh: inhibitors of human MT1-MMP activation. P50281. HT1080 RFP-PRO-GFP cells, GFP/RFP ratio fluorescence, overnight; percent of plate control window, DMSO zero. GFP/RFP ratio change, % at 20 µM. 360,000 tested, 0.061% active. AID 651647;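 active = GFP/RFP ratio change of at least 30% with cell ATP level not reduced by more than half and red fluorescence within 50% of control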; also: strong numbers were not always called active
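Material – HT1080 RFP-PRO-GFP cells · Control set – DMSO wells and RFP-L50D-GFP cells · Incubation – overnight cell settling, then overnight compound exposure, 37 °C, 5% CO2 · Compound dosing – single-point 20 µM compound, 1% DMSO · Read-out – GFP/RFP fluorescence ratio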
HIV Env fusion: HIV envelope-mediated fusion inhibition. HeLa-JRFL Env/CEM21 cell fusion, luciferase. inhibition, % at 12.3 µM. 360,000 tested, 1.1% active;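 active = mean replicate inhibition score of at least 50 and every replicate individually at or above 50; inconclusive = only one of the two criteria met; inactive = mean below 50 and not all replicates reaching 50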;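 also: 0% = plate neutral controls and 100% = maraviroc near 300 nM; one replicate is shown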
eIF4H inh retest: recorded beside eIF4H inh, whose call it bears; inhibition, %; compound at 20 µM; confirmation average;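 mean of two retest wells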
PABP FP inh retest: second read-out of PABP FP inh, no call of its own (marks repeat the call); inhibition, %; compound at 20 µM; confirmation repeats;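 mean of two retest wells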
MT1-MMP act inh RFP: second read-out of MT1-MMP act inh, no call of its own (marks repeat the call); RFP signal change, %; measured here: RFP expression control read;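 0 = vehicle wells; hits needed this value within 50% of zero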
Starred values were filed as active, the others as inactive; i = inactive; ? = inconclusive; · = not tested or not shown; + = active, no number; & = joins results of further samples.

SMILES	CSC inhib	eIF4H inh	PABP FP inh	Rce1 inh	UUG fidelity	MT1-MMP act inh	MT1-MMP act inh RFP	HIV Env fusion	others
Cc1cccc(S(=O)(=O)NCCC(=O)OCC(=O)Nc2ccc(C#N)cc2)c1	3	-3	6	i	·	-3	1	4
O=C(Nc1ccccc1N1CCCC1)c1ccc(Cl)c(S(=O)(=O)N2CCOCC2)c1	-9	·	·	i	-14	0	0	5
Cc1ccnc(SCc2cn3c(C)cc(C)nc3n2)n1	-3	7	22	+	·	-1	1	5
COC(=O)c1ccccc1S(=O)(=O)N1CCC(NC(=O)C(Cc2cccc(OC)c2OC)NC(C)=O)CC1 (stereo not given)	·	-4	7	i	-9	-4	0	11
O=C(NCc1cccnc1)C1CCCN1S(=O)(=O)c1ccc(Cl)cc1 (stereo not given)	-30	-4	-13	i	-32	1	-1	12
CC(C)n1c(N2CCN(C(=O)NCc3ccccc3)CC2)nc2ccccc21	·	-1	7	i	-30	5	3	11
COC(=O)c1cc(NC(=O)c2ccc(C)cc2)c(=O)oc1C	-3	-9	-2	i	-16	-10	0	2
CC(=O)Oc1ccc2c(c1)C(=O)CCCCCC(=O)O2	·	·	·	·	-18	3	-1	12
Cc1ccc2nsnc2c1S(=O)(=O)NCc1ccc2c(c1)OCO2	-5	-14	-20	i	-14	5	0	-83
Cn1c(N)c(C(=O)COC(=O)c2cc(C3CC3)nc3ccccc23)c(=O)n(C)c1=O	4	8	6	i	6	0	-5	10
COc1cc2c(cc1OC)/C(=C/C(=O)c1ccccc1F)NCC2	14	-2	1	i	-10	0	3	5
COc1ccc(OC(C)C(=O)Nc2cccc(OC)c2)cc1 (stereo not given)	-4	19	-4	i	-6	-9	-3	·
Cc1ccc(NC(=O)c2cc(-c3ccc4c(c3)OCO4)on2)cc1C	12	-9	16	i	-20	4	3	-10
O=C(CCCCl)OCc1cn(-c2ccc(Cl)cc2)nn1	9	-9	-1	i	·	2	0	9
O=C(COC(=O)c1cc(Cl)ccc1[N+](=O)[O-])NC1CC1	-12	·	·	·	-8	1	4	·
CCn1cc(CN2CCN(CC(C)(C)C)C(CCO)C2)c2ccccc21 (stereo not given)	2	-1	-6	i	-4	0	4	-4
Cc1c(C(=O)N2CCc3ccccc32)oc2ccccc12	17	3	40	i	-24	10	-4	-191
COc1ccc(C(CNC(=O)c2ccc(Br)o2)N2CCN(C)CC2)cc1 (stereo not given)	3	·	·	i	-11	-1	3	7
CCc1ccc(C(C)NC(=S)NCc2ccc(F)cc2)cc1 (stereo not given)	-4	-5	-8	i	-34	4	-1	19
COCCCNc1ccn2nc(-c3ccc(OCc4ccccc4)cc3)cc2n1	·	·	·	·	-21	0	-25	27
Cc1cc(-c2ccc3c(c2)COc2c4ccccc4nn2-3)on1	·	·	·	i	-20	-2	0	-277
Cc1ccc(-c2nc3ccsc3c(=O)o2)cc1	22	-3	-12	·	-22	-2	-2	-179
CCCCC(C)n1[nH]c(=O)c2c(C)cc(C)nc21 (stereo not given)	-4	16	16	i	·	0	5	-11
CCOC(=O)N1CCN(C(=O)c2ccccc2-c2ccccc2)CC1	53	-7	-8	i	-5	-4	-10	·
O=C(N/N=C1/CCc2ccccc21)C1CC1	-13	-2	7	i	·	0	-2	-4

Already shown: an excerpt of the list.
SMILES	CSC inhib	eIF4H inh	PABP FP inh	Rce1 inh	UUG fidelity	MT1-MMP act inh	MT1-MMP act inh RFP	HIV Env fusion	others
Cc1cccc(S(=O)(=O)NCCC(=O)OCC(=O)Nc2ccc(C#N)cc2)c1	3	-3	6	i	·	-3	1	4
O=C(Nc1ccccc1N1CCCC1)c1ccc(Cl)c(S(=O)(=O)N2CCOCC2)c1	-9	·	·	i	-14	0	0	5
Cc1ccnc(SCc2cn3c(C)cc(C)nc3n2)n1	-3	7	22	+	·	-1	1	5

Further structures.
SMILES	CSC inhib	eIF4H inh	PABP FP inh	Rce1 inh	UUG fidelity	MT1-MMP act inh	MT1-MMP act inh RFP	HIV Env fusion	others
O=C(Cn1ccc2cc(S(=O)(=O)N3CCCC3)ccc21)NCc1ccco1	-4	-1	17	i	-17	3	1	-1
Fc1ccccc1COc1ccc(-c2nnn(Cc3ccccc3F)n2)cc1	81*	-2	-10	i	4	0	-2	4
CCN(CC)C(=O)C1=C(C)N(Cc2ccc(F)cc2)C(=O)C(CC(=O)NC2CCCC2)C1 (stereo not given)	·	·	·	·	10	-1	0	-39
Cc1ccnc(NC(=O)c2ccccc2NC(=O)c2ccc(Cl)cc2Cl)c1	61	-10	-5	i	0	6	-10	-189
CC(C)c1ccc(NC(=S)NNC(=O)c2cccs2)cc1	-4	5	-14	·	·	6	2	-20
CCN(CC)S(=O)(=O)c1cc(NC(=O)COC(=O)c2ccc(NC(=O)CC#N)cc2)ccc1C	-12	3	-4	i	7	7	-2	9
CCS(=O)(=O)N1CCC(C(=O)NCc2ccc(F)cc2Cl)CC1	3	-1	-3	i	-6	-3	0	·
CCC[C@H]1CN(c2ccccc2)C(=O)[C@@H]1CC(=O)Nc1ccc(OC)cc1	·	·	·	·	2	-2	-3	6
O=C(C1CC(c2ccccc2O)=NO1)N1CCCC1 (stereo not given)	·	2	11	i	-4	3	1	·
CC12C=CC3(O1)C(C(=O)N1CCCOC13)C2C(=O)O (stereo not given)	-8	-10	-7	i	-20	0	2	-6
Cc1ccc(C(=O)NN(CCC(=O)NC(C)(C)C)C2=NS(=O)(=O)c3ccccc32)cc1	-2	-3	20	i	·	3	4	10
O=C1NC(Cc2ccccc2)c2nc3ccc(Br)cc3c(=O)n2-c2cc3ccccc3cc21 (stereo not given)	·	·	·	·	-17	-7	-7	-128
O=C(CCS(=O)(=O)c1ccccc1)Nc1ccccc1F	1	-3	2	i	·	-1	4	4
CCCOC(=O)Cn1cnc2scc(-c3ccc(C)cc3)c2c1=O	-15	6	-1	i	-1	-1	-5	10
CC(=O)N=C1SC2CS(=O)(=O)CC2N1c1ccccc1Cl (stereo not given)	-3	-2	-5	i	-29	-5	5	·
CCCS(=O)(=O)N1CCCC(c2nc(-c3ccc(OC)cc3)no2)C1 (stereo not given)	-9	5	5	i	2	0	-6	·
O=C(NCCN1CCc2ccccc2C1)Nc1ccc(F)cc1	0	96	-26	i	-6	2	6	-6	eIF4H inh retest=4;PABP FP inh retest=-7
CN(Cc1ccc2ccccc2c1)C(=O)c1ccc(C(F)(F)F)cc1	0	2	0	i	-10	3	2	9
COc1ccccc1NC(=O)Cn1nnc(-c2ccccc2NS(=O)(=O)c2ccccc2)n1	1	-10	6	i	-4	-1	-18	·
CCc1nnc(NC(=O)C2Cc3ccccc3CN2S(=O)(=O)CC)s1 (stereo not given)	1	2	-7	i	-13	1	1	0
O=C(O)c1cccc(-c2ccc(/C=c3/sc4nc5ccccc5n4c3=O)o2)c1	-6	60	48	i	-20	-41	4	1	eIF4H inh retest=17;PABP FP inh retest=33
Cc1ccc(-c2csc3ncnc(SCC(=O)O)c23)cc1	-15	-4	-11	i	-26	-4	-3	-2
CCCc1ccc(-c2cc(C(=O)N/N=C/c3ccc([N+](=O)[O-])o3)c3ccccc3n2)cc1	-14	46	7	i	-32	5	-14	·
Nn1c(C2CCC2)nc2ccccc2c1=O	-8	-7	8	·	-1	-2	3	7
COc1ccccc1NC(=O)/C(=C\c1cccnc1)NC(=O)c1ccc(C)cc1	·	-1	-10	+	0	-1	2	-15

(more compounds)
SMILES	CSC inhib	eIF4H inh	PABP FP inh	Rce1 inh	UUG fidelity	MT1-MMP act inh	MT1-MMP act inh RFP	HIV Env fusion	others
O=C(Cn1c(=O)oc2cc(S(=O)(=O)N3CCCC3)ccc21)NC1CCCc2ccccc21 (stereo not given)	4	1	-21	i	-9	-14	-2	-1
CC(C)(C)NS(=O)(=O)c1ccc(NC(=O)CS(=O)(=O)Cc2ccccc2)cc1	-8	1	-3	i	-9	1	-3	-4
COc1ccc(C2CC(=O)C3=C(C2)Nc2ncnn2C3c2ccccc2C)c(OC)c1 (stereo not given)	·	-10	-4	i	-10	-4	-5	?
COc1cc(Br)c(CN2CCCN(C)CC2)cc1OC	7	2	41	i	-13	-6	-3	-11
NC1=NC(c2ccc(F)cc2)n2c(nc3ccccc32)N1 (stereo not given)	-18	-7	-4	i	-19	4	-4	24
COc1ccc2c(c1)c(CC(=O)Nc1cccc(S(N)(=O)=O)c1)c(C)n2C(=O)c1ccc(Cl)cc1	38	-8	2	i	-3	7	-10	14
C[C@H](CO)N1C[C@H](C)[C@@H](CN(C)S(=O)(=O)c2cccs2)Oc2c(NC(=O)NC3CCCCC3)cccc2C1=O	·	·	·	·	-8&-4	4	-2	-7
COc1cc(S(=O)(=O)Nc2cccc(C(=O)O)c2)c(OC)cc1Cl	-3	3	-1	i	0	-2	7	-73
Cn1cnc2cc(NCc3cccs3)ccc21	7	-7	80	·	-20	4	2	1	eIF4H inh retest=18;PABP FP inh retest=28
CCN(c1ccccc1)S(=O)(=O)c1ccc(Cl)c(NC(=O)Nc2ccc(Cl)cc2C#N)c1	9	-5	-4	i	-6	-1	-6	48
COc1ccc(OC)c(NC(=O)C2CCCN(S(=O)(=O)c3cccc4nonc34)C2)c1 (stereo not given)	5	-3	-7	i	·	10	3	·
Cc1cc2ccccc2n1CCNC(=O)Cc1ccccc1	-7	?	44	i	1	43	64	·
CSc1cccc(CN2CCC(CO)(Cc3ccccc3)CC2)c1	12	-12	5	i	·	-2	3	7
O=C(Nc1ccc([N+](=O)[O-])cc1)NN1CCCCCC1	·	·	·	·	-9	-2	-15	0
O=C(O)CCCCCCCCCC(=O)c1cccs1	-8	-3	4	i	-41	11	5	·
Cc1cc(Oc2ccc(-c3ccccc3)cc2)nc(N2CCOCC2)n1	27	-2	-1	i	-2	-2	-10	·
CCn1c(SCC(=O)NC2CC2)nnc1-c1ccc(F)cc1	-10	7	-2	i	-13	3	6	-6
Cc1ccnc(NC(c2ccsc2)c2ccc3ccc(C)nc3c2O)c1 (stereo not given)	20	22	-4	i	-33	3	-4	-2
Cc1cc(C)nc(SCC(=O)Nc2ccc(Br)cn2)n1	-16	-8	7	i	16	-6	-2	·
CCC(C)NC(=O)c1ccccc1NC(=O)/C(=C/c1ccc(OC)cc1)c1ccccc1 (stereo not given)	72	-6	4	i	2	2	3	2
Cc1nc2nc(SCC(=O)NCCN3CCOCC3)nn2c(C)c1Cc1ccccc1	-10	2	-5	i	·	1	3	-14
COc1ccccc1N1CCN(C2CC(=O)N(c3ccccc3)C2=O)CC1 (stereo not given)	-5	-4	5	i	-9	1	3	-1
CCn1c(=O)n(CC)c2cc(NC(=O)c3ccccc3Cl)ccc21	-26	-7	-8	i	-5	4	3	18
O=C(COc1ccc([N+](=O)[O-])cc1)NNC(=O)C1COc2ccccc2O1 (stereo not given)	·	·	·	·	-5	1	3	34
Cc1ccc(C#N)c(SCCN2CCCCC2)n1	2	2	3	i	-13	1	5	33
O=C1ON=C(c2ccccc2)/C1=C/c1ccco1	14	8	-3	i	-8	-7	13	0
Cc1nc(C(F)(F)F)ccc1C(=O)N1CCCCCC1(C)C(=O)NCC(C)C (stereo not given)	·	·	·	·	-6	-3	-1	-9
CCOC(=O)c1sc(NC(=O)CSc2nccn2C)nc1C	-10	-1	5	i	-14	0	2	-29
C/C=C(/C)C(=O)OC1c2c(ccc3ccc(=O)oc23)OC(C)(C)C1OC(C)=O (stereo not given)	11	-5	-11	i	-11	-1	0	-40
CCN(CC)CCN(C(=O)c1cc2ccccc2cc1OC)c1nc2ccc(OC)cc2s1	34	-11	-4	i	6	-3	-4	11

From PubChem

Some of the compounds tested; the hit share may differ from the screen's.
